Screens as filed in PubChem.
YB-1 expr inh – YB-1 expression inhibition; U2OS, qRT-PCR YB-1 vs CDIP delta delta Cp, 16 h; active compounds read high; zero = DMSO, each unit about twofold; delta delta Cp (YB-1 minus CDIP) (test concentration not listed); 30,000 compounds, 0.37% hits; AID 434959;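 active = delta delta Cp rounded down to an integer at or above 3, about 3 SD of DMSO wells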;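 also: higher means less YB-1 transcript or more CDIP transcript relative to DMSO; stock transfer was 100 nL into about 100 µL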
MITF inhib – blocks MITF activity. TRPM1 promoter luciferase, luminescence, 24 h. inhibition, % (concentration not given with the values). 37,000 compounds, 0.28% hits. AID 2240;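 active = most replicates at 85% or more, or half of them and the mean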;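 also: human melanocyte line stably carrying TRPM1 promoter luciferase reporter; 0% = vehicle wells and 100% = a positive control; the first replicate is given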
PD-1 reverse act – activators reversing PD-1 mediated T-cell inhibition. primary human CD4 T cells, PD-L1 beads, CellTiter-Glo 96 h. activation, % (concentration not given with the values). 29,000 tested, under 10 active;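 active = replicate mean of 50% or more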;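 also: 0% = median vehicle wells and 100% = positive control; 100 nL library stock added to about 50 µL; numbers are from one replicate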
Shh pathway inh – Sonic Hedgehog pathway inhibition | AID 2313 | 22,000 compounds, 2.1% hits | Shh-LIGHT2 Gli-luciferase reporter, 30 h | inhibition, % (test concentration not listed);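 active = replicate mean of 65% or more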;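 also: pathway switched on by Shh-conditioned medium diluted 1 in 25 in low serum; 100 nL library stock added to about 40 µL; 0% = median of neutral wells and 100% = positive control level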
* marks the source's active call; other numbers are inactive results; . = not tested or not shown.

SMILES	YB-1 expr inh	MITF inhib	PD-1 reverse act	Shh pathway inh
C[C@@H]1CN([C@@H](C)CO)C(=O)c2cccc(NC(=O)Nc3ccc(F)cc3)c2O[C@@H]1CN(C)Cc1ccc(Cl)c(Cl)c1	-0.135	-11.2	-4.8	40.3
COc1ccc(C)cc1NC(=O)CSc1nc(SC)ns1	.	32.4	-0.8	.
C[C@@H]1CN([C@H](C)CO)C(=O)c2cccc(NS(=O)(=O)c3ccc(Cl)cc3)c2O[C@@H]1CN(C)C(=O)NC1CCCCC1	-0.127	12.0	.	5.2
C[C@@H]1CCCCO[C@@H](CN(C)Cc2ccncc2)[C@@H](C)CN([C@H](C)CO)C(=O)c2cc(NC(=O)NC3CCCCC3)ccc2O1	-0.422	17.3	0.3	.
C[C@H](CO)N1C[C@H](C)[C@H](CN(C)Cc2ccc3c(c2)OCO3)Oc2ccc(NC(=O)CCCN(C)C)cc2C1=O	0.244	7.7	0.5	3.9
C[C@H]1CN([C@@H](C)CO)C(=O)c2cccc(NC(=O)Nc3ccc(F)cc3)c2O[C@H]1CN(C)Cc1ccc2c(c1)OCO2	0.388	19.4	0.3	-37.9
C[C@H](CO)N1C[C@H](C)[C@H](CN(C)CC2CCCCC2)Oc2ccc(NC(=O)Nc3ccc(C(F)(F)F)cc3)cc2CC1=O	0.178	22.1	-4.8	28.5
C[C@H](CO)N1C[C@H](C)[C@H](CN(C)S(=O)(=O)c2ccc(F)cc2)Oc2c(NC(=O)NC3CCCCC3)cccc2C1=O	-0.19	51.2	-2.2	93.2*
Nc1nnnn1/N=C1/C(=O)Nc2ccc(Br)cc21	-0.239	22.5	-0.4	14.6
COc1ccc(-c2noc(CCCN3C(=O)c4ccccc4C3=O)n2)cc1OC	.	-44.1	0.8	.
O=C(COc1ccc(F)cc1)Nc1cc(Cl)ccc1C(=O)O	.	-17.6	1.6	.
COc1ccccc1NC(=O)CSc1nc(Nc2ccccc2)nc(Nc2ccccc2)n1	.	14.6	-0.7	.
Cc1noc(C)c1NC(=O)N(C)C[C@H]1Oc2ccc(NS(=O)(=O)c3ccc(Cl)cc3)cc2C(=O)N([C@@H](C)CO)C[C@H]1C	-0.24	-2.9	0.3	2.6
C[C@H]1CN([C@@H](C)CO)C(=O)Cc2cc(NS(=O)(=O)c3cccs3)ccc2O[C@H]1CN(C)S(=O)(=O)c1ccc(F)cc1	0.119	-4.7	.	14.4
COC1=CC(=O)OC1C(O)C(O)C(OC(C)=O)c1ccccc1 (centres undefined)	0.0967	2.5	0.3	-5.9
C[C@H]1O[C@@H](O[C@H]2CC[C@@]3(C)C(CC[C@]4(C)C3CC=C3C5CC(C)(C)CC[C@]5(C(=O)O)CC[C@]34C(=O)O)C2(C)C)[C@H](O)[C@@H](O)[C@H]1O (some centres undefined)	0.198	.	.	9.3
C[C@@H]1CN([C@@H](C)CO)C(=O)c2cc(NC(=O)C3CC3)ccc2O[C@@H]1CN(C)C(=O)Nc1cccc2ccccc12	0.245	-10.8	0.1	.
COc1ccc2nc(SCC(=O)N3CCCc4ccccc43)[nH]c2c1	.	-29.6	1.2	.
COC(=O)c1ccccc1NC(=O)COc1ccccc1F	.	-52.9	0.4	.
Cc1noc(C)c1NC(=O)N(C)C[C@@H]1OCCCC[C@@H](C)Oc2ccc(NC(=O)Cc3ccccc3)cc2C(=O)N([C@H](C)CO)C[C@@H]1C	-0.318	-11.1	0.6	-26.9
CC(=O)N(CN1C(=O)c2ccccc2C1=O)c1ccccc1C	-0.274	5.3	-0.1	25.7
CN(c1cccc(NC(=O)c2ccc(CN3CCc4ccccc4C3)cc2)c1)S(C)(=O)=O	.	31.1	1.2	.
COc1ccc(S(=O)(=O)N(C)C[C@H]2Oc3ccc(NC(=O)C4CCCCC4)cc3C(=O)N([C@H](C)CO)C[C@H]2C)cc1	-0.0452	-21.0	-0.7	-6.6
Clc1ccc(CO/N=C(\Cn2ccnc2)c2ccc(Cl)cc2Cl)c(Cl)c1	-0.565	92.7*	.	104.4*
COc1ccc(NC(=O)Nc2ccc3c(c2)C(=O)N([C@H](C)CO)C[C@@H](C)[C@@H](CN(C)Cc2ccc(Oc4ccccc4)cc2)O3)cc1	0.115	-6.9	.	95.6*
CC1(C)Cc2nc(-c3ccccc3)nc(SCC(=O)Nc3ccc(Br)cc3)c2CO1	.	1.2	-13.1	.
C[C@H]1CN([C@@H](C)CO)C(=O)c2cc(NC(=O)Nc3ccccc3)ccc2O[C@H]1CN(C)C	-0.503	4.8	4.7	.
CC(C)(C)c1ccc(OCC(N)=NC(=O)c2ccc(OC(F)(F)F)cc2)cc1	-0.0385	-8.6	-0.7	.
C[C@@H]1CCCCO[C@@H](CN(C)C(=O)C2CCCCC2)[C@@H](C)CN([C@H](C)CO)C(=O)c2cc(NS(=O)(=O)c3ccc(F)cc3)ccc2O1	-0.1	33.2	.	-1.7
COc1ccc(S(=O)(=O)N(C)C[C@@H]2Oc3c(NS(=O)(=O)c4cn(C)cn4)cccc3C(=O)N([C@H](C)CO)C[C@H]2C)cc1	0.201	-5.5	4.1	-24.6

Part of the list above in order of heavy-atom count, low to high:
SMILES	YB-1 expr inh	MITF inhib	PD-1 reverse act	Shh pathway inh
CC(C)(C)c1ccc(OCC(N)=NC(=O)c2ccc(OC(F)(F)F)cc2)cc1	-0.0385	-8.6	-0.7	.
CN(c1cccc(NC(=O)c2ccc(CN3CCc4ccccc4C3)cc2)c1)S(C)(=O)=O	.	31.1	1.2	.
COc1ccc(S(=O)(=O)N(C)C[C@H]2Oc3ccc(NC(=O)C4CCCCC4)cc3C(=O)N([C@H](C)CO)C[C@H]2C)cc1	-0.0452	-21.0	-0.7	-6.6

Retrieved one by one from the list above, 3 records:
SMILES	YB-1 expr inh	MITF inhib	PD-1 reverse act	Shh pathway inh
C[C@@H]1CN([C@@H](C)CO)C(=O)c2cc(NC(=O)C3CC3)ccc2O[C@@H]1CN(C)C(=O)Nc1cccc2ccccc12	0.245	-10.8	0.1	.
Nc1nnnn1/N=C1/C(=O)Nc2ccc(Br)cc21	-0.239	22.5	-0.4	14.6
COc1ccc(C)cc1NC(=O)CSc1nc(SC)ns1	.	32.4	-0.8	.

Some entries already given, limited to Shh pathway inh, MITF inhib and YB-1 expr inh.
Compound	Shh pathway inh	MITF inhib	YB-1 expr inh
COc1ccc(S(=O)(=O)N(C)C[C@@H]2Oc3c(NS(=O)(=O)c4cn(C)cn4)cccc3C(=O)N([C@H](C)CO)C[C@H]2C)cc1	-24.6	-5.5	0.201
CC(=O)N(CN1C(=O)c2ccccc2C1=O)c1ccccc1C	25.7	5.3	-0.274
Clc1ccc(CO/N=C(\Cn2ccnc2)c2ccc(Cl)cc2Cl)c(Cl)c1	104.4*	92.7*	-0.565
CC(C)(C)c1ccc(OCC(N)=NC(=O)c2ccc(OC(F)(F)F)cc2)cc1	.	-8.6	-0.0385
CC1(C)Cc2nc(-c3ccccc3)nc(SCC(=O)Nc3ccc(Br)cc3)c2CO1	.	1.2	.

(listing goes on)
SMILES	YB-1 expr inh	MITF inhib	PD-1 reverse act	Shh pathway inh
CC(C)NC(=O)N(C)C[C@H]1Oc2ccc(NC(=O)Cc3ccccc3)cc2C(=O)N([C@@H](C)CO)C[C@@H]1C	0.119	-13.0	1.9	.
C[C@@H]1CCCCO[C@@H](CN(C)Cc2ccccc2)[C@@H](C)CN([C@H](C)CO)C(=O)c2cc(NS(=O)(=O)c3ccc(F)cc3)ccc2O1	0.0113	-15.7	-1.2	.
Cc1noc(C)c1NC(=O)N(C)C[C@H]1Oc2ccc(NC(=O)Cc3cn(C)c4ccccc34)cc2C(=O)N([C@@H](C)CO)C[C@@H]1C	-0.48	11.0	-0.9	.
Cc1noc(C)c1NC(=O)N(C)C[C@H]1Oc2c(NC(=O)c3ccncc3)cccc2C(=O)N([C@H](C)CO)C[C@@H]1C	0.227	-0.8	2.3	-17.8
C[C@H]1CN([C@@H](C)CO)C(=O)c2cccc(NC(=O)c3ccncc3)c2O[C@H]1CN(C)Cc1ccc(C(=O)O)cc1	0.161	1.2	1.8	-17.9
Cc1nnc(SCC(=O)N2CCc3ccccc32)n1-c1ccccc1	.	-3.9	1.1	.
COc1cc(OC)cc(-c2nc(N)c3c(C)c(-c4ccc(OC)c(OC)c4)sc3n2)c1	-0.91	22.6	-7.2	23.7
C[C@@H]1CN([C@@H](C)CO)C(=O)c2cccc(NC(=O)c3ccncc3)c2O[C@H]1CN(C)C(=O)Nc1ccccc1	0.212	-14.9	.	-1.9
O=C(O)CCc1nn2c3ccccc3n(CC(=O)c3ccccc3)c2nc1=O	.	-16.1	-0.2	.
CC(C)NC(=O)N(C)C[C@@H]1Oc2ccc(NC(=O)Nc3ccccc3)cc2C(=O)N([C@H](C)CO)C[C@H]1C	0.0394	1.7	1.1	.
Cc1noc(C)c1NC(=O)Nc1ccc2c(c1)C(=O)N([C@H](C)CO)C[C@H](C)[C@H](CN(C)Cc1ccc(Cl)c(Cl)c1)O2	0.217	10.2	0.3	-11.1
C[C@@H]1CN([C@@H](C)CO)C(=O)c2cc(NC(=O)C3CCCCC3)ccc2O[C@H]1CN(C)Cc1ccc(Oc2ccccc2)cc1	0.611	27.7	-1.2	24.6
C[C@H]1CN([C@@H](C)CO)C(=O)c2cccc(NS(=O)(=O)c3ccc(Cl)cc3)c2O[C@@H]1CN(C)CC1CCCCC1	0.175	-15.8	.	40.0
Cc1ccc(-c2csc3ncnc(SCC(=O)c4ccc(F)cc4)c23)cc1	.	21.8	0.0	.
O=C(CSc1nc2ccccc2c(=O)[nH]1)Nc1ccccc1Cl	.	22.3	-0.8	.
Cc1cc(C(=O)Nc2cccc3c2O[C@H](CN(C)C(=O)Nc2c(C)noc2C)[C@@H](C)CN([C@@H](C)CO)C3=O)n(C)n1	-0.282	-3.3	0.4	-24.3
COc1cc(NC(=S)NCc2ccc(S(N)(=O)=O)cc2)c(OC)cc1Cl	.	-16.4	-0.7	.
Cc1sc2ncnc(SCC(=O)Nc3ccccc3-c3ccccc3)c2c1C	.	60.9	-0.3	.
C[C@H](CO)N1C[C@H](C)[C@@H](CN(C)Cc2ccc(-c3ccccc3)cc2)Oc2c(NC(=O)C3CC3)cccc2C1=O	0.725	36.9	.	30.7
C[C@H]1CN([C@@H](C)CO)C(=O)Cc2cc(NC(=O)Cc3cn(C)c4ccccc34)ccc2O[C@H]1CN(C)Cc1ccccc1	-0.107	19.0	-1.4	5.6
C[C@H]1CN([C@@H](C)CO)C(=O)c2cccc(NS(=O)(=O)c3ccc(Cl)cc3)c2O[C@H]1CN(C)Cc1ccc2c(c1)OCO2	0.321	6.8	.	40.5
C[C@H]1CN([C@@H](C)CO)C(=O)c2cc(NC(=O)C3CCCCC3)ccc2O[C@H]1CN(C)C(=O)Nc1ccc(F)cc1	-0.276	-10.4	-1.5	-11.6
C[C@@H]1CN([C@@H](C)CO)C(=O)c2cccc(NC(=O)C3CC3)c2O[C@@H]1CN(C)S(=O)(=O)c1cn(C)cn1	0.0798	7.1	0.6	14.4
C[C@@H]1CCCCO[C@H](CN(C)C(=O)Nc2ccc(C(F)(F)F)cc2)[C@@H](C)CN([C@H](C)CO)C(=O)c2cc(NC(=O)CCC(F)(F)F)ccc2O1	-0.179	2.8	.	-10.3
C[C@@H]1CN([C@@H](C)CO)C(=O)c2cccc(N(C)C)c2O[C@@H]1CN(C)C(=O)Nc1ccc(C(F)(F)F)cc1	0.381	-11.4	1.3	-14.0
CC(=O)OC[C@]12[C@H](OC(C)=O)[C@H](OC(C)=O)[C@@H]3[C@@H](OC(C)=O)[C@@]14O[C@@]3(C)COC(=O)c1cnccc1CC[C@H](C)C(=O)O[C@@]4(C)[C@@H](O)[C@H](O)[C@@H]2OC(C)=O	-0.61	29.2	-2.6	-3.9
C[C@]12CC[C@@H]3c4ccc(OS(=O)(=O)O)cc4CC[C@H]3[C@@H]1CCC2=O	0.0706	2.4	.	-24.3
Cc1ccc(S(=O)(=O)N(C)C[C@H]2Oc3ccc(NS(=O)(=O)c4ccc(Cl)cc4)cc3C(=O)N([C@H](C)CO)C[C@H]2C)cc1	0.184	13.4	-0.9	.
O=C(c1cccc(Cl)c1)N(Cc1ccccc1)Cc1ccccc1	-0.598	12.6	-0.5	-21.3
C[C@H]1CN([C@@H](C)CO)C(=O)Cc2cc(NC(=O)Nc3ccc(F)cc3)ccc2O[C@@H]1CN(C)CC1CC1	0.141	-3.2	0.0	17.1
Cc1cc(C(F)(F)F)nc(SCC(=O)Nc2ccccc2C(F)(F)F)n1	.	-6.4	-0.5	.
C=C1C(=O)O[C@H]2C[C@@H](C)[C@@H]3CCC(=O)[C@@]3(C)C[C@H]12	0.193	18.9	-6.8	-6.8

These rows are one share of the data; the hit share may differ from the screen's.
